Screens (PubChem BioAssay)
DUX4 txn inh: blocks DUX4-driven transcriptional activation; 293T-iDUX4 ZSCAN4-Gaussia luciferase reporter, 24 h; hits give low values; activity change, negative = inhibition, % (test concentration not listed); actives 0.8% (n = 37,000);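 active = -10% or lower and over 25 points stronger than a control reporter; inconclusive = -10% or lower with a smaller gap; inactive = above -10%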;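 also: 0% = median of neutral control wells and -100% = median of positive control wells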
DUX4 txn inh difference: further read-out of DUX4 txn inh, marked with its call; Gaussia minus Italica difference, %; measured here: selective DUX4 reporter inhibition;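 worked out from the two reporters; negative = selective loss of the DUX4 reporter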
DUX4 txn inh control: second read-out of DUX4 txn inh, no call of its own (marks repeat the call); activity change, negative = inhibition, %; measured here: Italica tet-on control reporter;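 0 = neutral control and -100 = positive control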
An asterisk follows results filed as active; ? = inconclusive; . = no result given. Some of the compounds tested; rates above refer to the full screens.

| Structure | DUX4 txn inh | DUX4 txn inh difference | DUX4 txn inh control |
| --- | --- | --- | --- |
| COCC(=O)N1CC2(CCN(Cc3ccccc3)CC2)c2c(n(C)c3cc(OC)ccc23)[C@@H]1CO | -8 | 26 | -34 |
| COc1cccc(-c2cnc3c(c2)C(=O)N([C@H](C)CO)C[C@@H](C)[C@H](CN(C)C(=O)Nc2ccccc2F)O3)c1 | 1 | -1 | 2.1 |
| COc1ccc(CN(C)C[C@H]2Oc3ccc(NC(=O)Nc4c(C)noc4C)cc3C(=O)N([C@H](C)CO)C[C@H]2C)cc1 | -1 | -3 | 2.0 |
| C[C@H]1CN([C@@H](C)CO)C(=O)Cc2cc(NS(=O)(=O)c3cn(C)cn3)ccc2O[C@@H]1CN(C)C(=O)NC1CCCCC1 | 0 | -1 | 1.0 |
| CCc1nc(N2[C@H](C#N)[C@@H](c3ccccc3-c3ccc(F)cc3)[C@@H]2CO)sc1C | 3 | -2 | 5.0 |
| C/C=C/c1cnc2c(c1)C(=O)N([C@@H](C)CO)C[C@H](C)[C@H](CN(C)S(=O)(=O)c1cn(C)cn1)O2 | -1 | -4 | 3.0 |
| O=C(C[C@H]1CC[C@H]2[C@@H](COC[C@H](O)CN2Cc2nccs2)O1)NCc1ccc(-c2ccccc2)cc1 | ? | . | . |
| C[C@H](CO)N1C[C@H](C)[C@H](CN(C)S(=O)(=O)c2ccc(F)cc2)OCCCC[C@H](C)Oc2ccc(N(C)C)cc2C1=O | 0 | 0 | 0.6 |
| CC(C)CC#Cc1ccc([C@H]2[C@@H](CO)N3C(=O)CN(C(=O)CN4CCOCC4)C[C@@H]23)cc1 | -1 | -10 | 9.5 |
| CCN(C[C@@H]1[C@@H](c2ccccc2)[C@@H](CO)N1C(=O)COC)C(=O)NC(C)C | -1 | -1 | -0.3 |
| COc1ccc(S(=O)(=O)Nc2ccc3c(c2)C(=O)N([C@@H](C)CO)C[C@@H](C)[C@H](CN(C)CC2CC2)OCCCC[C@H](C)O3)cc1 | -3 | 2 | -5.6 |
| COC(=O)C[C@H]1CC[C@@H]2[C@H](COc3ccc(NC(=O)c4ccc(F)c(F)c4)cc3C(=O)N2C)O1 | -6 | -2 | -3.8 |
| O=C(C[C@@H]1CC[C@H]2[C@@H](COC[C@@H](O)CN2C(=O)Nc2ccc(F)cc2)O1)NC1Cc2ccccc2C1 | 5 | 5 | -0.6 |
| O=C(C[C@@H]1CC[C@H]2[C@@H](COC[C@@H](O)CN2Cc2ccc3c(c2)OCO3)O1)N1CCOCC1 | 8 | 0 | 7.8 |
| O=C(NCc1cc(F)cc(F)c1)[C@H]1[C@H](CO)[C@H]2Cn3c(cccc3=O)[C@@H]1N2C(=O)Cc1ccccn1 | -2 | -2 | 0.1 |
| CCC(=O)Nc1ccc2c(c1)OC[C@H](C)N(CC1CC1)C[C@@H](C)[C@@H](OC)CN(C)C2=O | 6 | 3 | 2.9 |
| O=C(C[C@@H]1CC[C@H]2[C@@H](COC[C@H](O)CN2C(=O)Nc2cc(Cl)cc(Cl)c2)O1)N1CCCCC1 | -4 | 2 | -5.9 |
| N#C[C@H]1[C@@H](c2ccc(C#CC3(O)CCCC3)cc2)[C@H](CO)N1C(=O)C1CCC1 | 0 | -3 | 2.6 |
| COc1ccccc1-c1ccc2n(c1=O)C[C@H]1[C@H](CO)[C@@H](C(=O)N3CCCCC3)N(C)[C@@H]21 | 4 | 8 | -3.8 |
| c1cncc(CN2C[C@@H]3N[C@H](C2)C3c2ccc(-c3cccnc3)cc2)c1 (stereo not given in full) | -3 | -17 | 14 |
| COc1ccccc1CN1[C@@H]2CNC[C@H]1C2c1ccc(/C=C/c2ccccc2)cc1 (stereo not given in full) | 5 | 10 | -4.4 |
| O=C(C[C@H]1CC[C@@H]2[C@H](COC[C@H](O)CN2C(=O)Nc2cc(Cl)cc(Cl)c2)O1)N1CCOCC1 | 7 | -1 | 7.8 |
| COc1cccc(S(=O)(=O)N[C@@H]2CC[C@H](CC(=O)NC3Cc4ccccc4C3)O[C@H]2CO)c1 | 8 | 2 | 5.5 |
| CN(C)C(=O)C[C@H]1CC[C@H]2[C@@H](COc3ccc(NS(=O)(=O)c4cccc(F)c4)cc3C(=O)N2C)O1 | 2 | 1 | 0.9 |
| CCCN1C[C@H](C)[C@@H](OC)CN(C)C(=O)c2cc(NC(=O)C3CCC3)ccc2OC[C@@H]1C | -8 | -12 | 4.8 |
| Cc1ccccc1CN(C)C[C@@H]1OCc2cn(nn2)CCCC(=O)N([C@@H](C)CO)C[C@@H]1C | -5 | -8 | 3.0 |
| COc1ccc(NC(=O)Nc2ccc3c(c2)[C@@H]2C[C@@H](CC(=O)NCc4ccccc4F)O[C@@H](CO)[C@@H]2O3)cc1 | 5 | 1 | 4.4 |
| CN1C(=O)c2cc(NC(=O)c3ccc(C(F)(F)F)cc3)ccc2OC[C@@H]2O[C@@H](CC(=O)NCc3ccc4c(c3)OCO4)CC[C@@H]21 | 2 | -2 | 3.9 |
| N#C[C@H]1[C@H](c2ccc(C#CC3CCCC3)cc2)[C@H](CO)N1S(=O)(=O)c1ccccc1 | -4 | -1 | -2.9 |
| C[C@H](O)C#Cc1cnc2c(c1)C(=O)N([C@H](C)CO)C[C@@H](C)[C@H](CN(C)C(=O)c1ccccc1F)O2 | 0 | -3 | 2.5 |

Full records, looked up by structure. Order of values: DUX4 txn inh	DUX4 txn inh difference	DUX4 txn inh control
`N#C[C@H]1[C@H](c2ccc(C#CC3CCCC3)cc2)[C@H](CO)N1S(=O)(=O)c1ccccc1` as listed: -4	-1	-2.9
`CCN(C[C@@H]1[C@@H](c2ccccc2)[C@@H](CO)N1C(=O)COC)C(=O)NC(C)C` as listed: -1	-1	-0.3
`COc1ccc(CN(C)C[C@H]2Oc3ccc(NC(=O)Nc4c(C)noc4C)cc3C(=O)N([C@H](C)CO)C[C@H]2C)cc1` as listed: -1	-3	2.0

Following part:
| Structure | DUX4 txn inh | DUX4 txn inh difference | DUX4 txn inh control |
| --- | --- | --- | --- |
| COc1cccc(-c2cnc3c(c2)C(=O)N([C@H](C)CO)C[C@H](C)[C@@H](CN(C)C(=O)Nc2ccccc2F)O3)c1 | 6 | 9 | -2.1 |
| CC(C)NC(=O)N[C@@H]1CC[C@@H](CCNS(=O)(=O)Cc2ccccc2)O[C@@H]1CO | -6 | -8 | 1.8 |
| CCCNC(=O)C[C@@H]1CC[C@H]2[C@@H](COC[C@@H](O)CN2Cc2ccccc2F)O1 | 1 | 0 | 0.6 |
| CNC[C@H]1Oc2c(NC(=O)Nc3cccc4ccccc34)cccc2C(=O)N([C@@H](C)CO)C[C@H]1C | 2 | 0 | 1.7 |
| CCCN(C)C[C@H]1OCCCC[C@@H](C)Oc2ccc(NC(=O)Nc3ccc4c(c3)OCO4)cc2C(=O)N([C@H](C)CO)C[C@@H]1C | 1 | -3 | 3.6 |
| COCCNC(=O)C[C@H]1CC[C@H]2[C@@H](COC[C@@H](O)CN2Cc2ccc(Cl)c(Cl)c2)O1 | 6 | 6 | -0.3 |
| Cc1ccc(CN2CC(=O)N3[C@H](CO)[C@H](c4ccc(-c5ccccc5F)cc4)[C@@H]3C2)cc1 | 3 | 0 | 3.2 |
| CCCNC(=O)N1[C@H](C#N)[C@H](c2ccccc2)[C@@H]1CO | 4 | 0 | 4.3 |
| Cc1ccccc1-c1ccc2c(c1)O[C@@H](CN(C)Cc1ccncc1)[C@H](C)CN([C@H](C)CO)S2(=O)=O | 2 | 3 | -0.4 |
| CCC(=O)N1[C@@H]2c3ccc(-c4ccccc4)c(=O)n3C[C@H]1[C@H](CO)[C@H]2C(=O)N1CCCCC1 | 4 | -1 | 5.2 |
| N#C[C@H]1[C@@H](c2ccccc2C2=CCCC2)[C@H](CO)N1C(=O)C1CC1 | 7 | -3 | 9.2 |
| CCC(=O)Nc1ccc2c(c1)C(=O)N(C)C[C@@H](OC)[C@H](C)CN(C(=O)c1ccc(F)cc1)[C@@H](C)CO2 | 0 | 2 | -2.3 |
| Cc1noc(C)c1NC(=O)Nc1ccc2c(c1)C(=O)N([C@H](C)CO)C[C@H](C)[C@H](CN(C)Cc1ccc3c(c1)OCO3)OCCCC[C@H](C)O2 | 4 | 6 | -1.7 |
| COc1cccc(S(=O)(=O)Nc2ccc3c(c2)C(=O)N(C)[C@H]2CC[C@@H](CC(=O)O)O[C@H]2CO3)c1 | 1 | -1 | 1.6 |
| CCS(=O)(=O)Nc1ccc2c(c1)C(=O)N(C)[C@@H]1CC[C@@H](CC(=O)N[C@H]3CCN(Cc4ccccc4)C3)O[C@@H]1CO2 | 1 | -5 | 5.9 |
| CCCN(C)C[C@H]1OCCCC[C@@H](C)Oc2ccc(NS(=O)(=O)c3ccc(C)cc3)cc2C(=O)N([C@H](C)CO)C[C@H]1C | -2 | 1 | -2.6 |
| COCC(=O)N1[C@H](C#N)[C@H](c2ccc(-c3cccc(F)c3)cc2)[C@H]1CO | -2 | 0 | -2.0 |
| COc1ccc(NC(=O)N[C@@H]2CC[C@H](CCn3cc(C4(O)CCCC4)nn3)O[C@H]2CO)cc1 | 1 | 3 | -1.9 |
| COc1cccc(NC(=O)N(C)C[C@@H]2OCc3cnnn3CCCC(=O)N([C@H](C)CO)C[C@H]2C)c1 | -4 | -6 | 2.7 |
| Fc1cccc(CN2[C@@H]3CNC[C@H]2C3c2ccc(/C=C/c3ccccc3)cc2)c1 (stereo not given in full) | 9 | -3 | 12 |
| CCCNC(=O)Nc1ccc2c(c1)OC[C@H](C)N(Cc1cncnc1)C[C@@H](C)[C@@H](OC)CN(C)C2=O | 6 | 8 | -1.6 |
| CO[C@H](CN(C)Cc1cc(F)ccc1F)[C@H](C)CN([C@@H](C)CO)S(=O)(=O)c1ccc(Cl)cc1 | 1 | 1 | -0.4 |
| C/C=C/c1ccc([C@@H]2[C@H](CO)N(CC3CC3)C23CN(C(=O)COC)C3)cc1 | 3 | -3 | 6.0 |
| CNC[C@@H]1Oc2c(NC(=O)Nc3ccc(C(F)(F)F)cc3)cccc2C(=O)N([C@@H](C)CO)C[C@H]1C | 4 | -1 | 4.2 |
| O=C(C[C@@H]1C=C[C@@H](NC(=O)c2ccccn2)[C@H](CO)O1)NCc1cccc(F)c1 | 4 | 2 | 2.3 |
| CCCNC(=O)N(C)C[C@@H]1Oc2cc(-c3cccnc3)ccc2S(=O)(=O)N([C@H](C)CO)C[C@@H]1C | -3 | 1 | -4.1 |
| O=C(Nc1ccccc1)Nc1ccc2c(c1)[C@@H]1C[C@@H](CC(=O)N3CCCCC3)O[C@@H](CO)[C@@H]1O2 | ? | . | . |
| O=C(C[C@H]1C[C@@H]2c3cc(NC(=O)Nc4ccccc4F)ccc3O[C@@H]2[C@H](CO)O1)NCc1cc(F)ccc1F | 0 | 2 | -1.3 |
| COCC(=O)N1[C@H](C#N)[C@@H](c2ccccc2-c2ccccc2)[C@@H]1CO | 20 | 14 | 5.4 |
| C/C=C/c1ccc2c(c1)[C@@H]1[C@@H](CCN1C(=O)Cc1cccnc1)[C@H](CO)N2C | 20 | 2 | 18 |

Ordered by molecular weight (ascending): part of the list above
| Structure | DUX4 txn inh | DUX4 txn inh difference | DUX4 txn inh control |
| --- | --- | --- | --- |
| C/C=C/c1ccc2c(c1)[C@@H]1[C@@H](CCN1C(=O)Cc1cccnc1)[C@H](CO)N2C | 20 | 2 | 18 |
| O=C(C[C@@H]1C=C[C@@H](NC(=O)c2ccccn2)[C@H](CO)O1)NCc1cccc(F)c1 | 4 | 2 | 2.3 |
| COc1cccc(S(=O)(=O)Nc2ccc3c(c2)C(=O)N(C)[C@H]2CC[C@@H](CC(=O)O)O[C@H]2CO3)c1 | 1 | -1 | 1.6 |
| CCS(=O)(=O)Nc1ccc2c(c1)C(=O)N(C)[C@@H]1CC[C@@H](CC(=O)N[C@H]3CCN(Cc4ccccc4)C3)O[C@@H]1CO2 | 1 | -5 | 5.9 |

(list continues)
| Structure | DUX4 txn inh | DUX4 txn inh difference | DUX4 txn inh control |
| --- | --- | --- | --- |
| COc1ccc(CNC(=O)C[C@@H]2C=C[C@H](NC(=O)Nc3ccc4c(c3)OCO4)[C@@H](CO)O2)cc1 | 1 | -1 | 1.7 |
| Cc1ccccc1-c1cnc2c(c1)C(=O)N([C@H](C)CO)C[C@@H](C)[C@H](CN(C)CC1CCOCC1)O2 | 1 | 5 | -4.7 |
| CCCC#Cc1ccc([C@H]2[C@H](CO)N3C(=O)CN(C(=O)NC4CCCC4)C[C@@H]23)cc1 | 2 | -5 | 6.9 |
| COC(=O)C[C@@H]1C[C@@H]2c3cc(NS(=O)(=O)c4cccc(OC)c4)ccc3O[C@@H]2[C@H](CO)O1 | 5 | -4 | 8.6 |
| CCC(=O)N(CC)C[C@@H]1[C@@H](c2ccccc2)[C@H](CO)N1C(=O)C1CCC1 | 3 | 7 | -3.8 |
| O=C(Nc1ccccc1F)N1CCCCN2[C@H](CO)[C@@H](c3ccc(/C=C/c4ccccc4)cc3)[C@H]2C1 | ? | . | . |
| O=C(Cc1ccncc1)NCC[C@@H]1CC[C@@H](NC(=O)C2CCOCC2)[C@H](CO)O1 | 1 | 1 | 0.4 |
| CCNC(=O)[C@@H]1[C@@H](CO)[C@@H]2Cn3c(ccc(C4=CCCC4)c3=O)[C@H]1N2Cc1ccncc1 | -5 | -11 | 6.1 |
| CCNC(=O)[C@H]1[C@H](CO)[C@H]2Cn3c(ccc(-c4ccc(F)cc4)c3=O)[C@@H]1N2C(=O)C1CC1 | 4 | 3 | 1.6 |
| COc1ccccc1CNC(=O)C[C@@H]1C[C@H]2c3cc(NC(=O)NC4CCCC4)ccc3O[C@H]2[C@@H](CO)O1 | 1 | 4 | -2.2 |
| Cc1cccc(-c2ccc([C@@H]3[C@H](CO)N4C(=O)CN(C(=O)c5ccccc5)C[C@@H]34)cc2)c1 | ? | . | . |
| CO[C@@H](CN(C)S(=O)(=O)c1ccccc1)[C@@H](C)CN(C(=O)Nc1ccccc1F)[C@H](C)CO | 0 | -7 | 6.6 |
| CNC[C@H]1OCCCC[C@@H](C)Oc2ccc(NS(=O)(=O)c3ccc(F)cc3)cc2C(=O)N([C@H](C)CO)C[C@H]1C | 5 | 1 | 4.2 |
